Nrf2 block = Nrf2 pathway inhibition; A549 ARE-Fluc reporter, luciferase luminescence, 18-24 h; AID 504444; Potency, µM (highest dose often 46 µM), without a hit: at the top dose activity change, negative = inhibition, usual class: inhibitors; 360,000 compounds, 2.1% hits; further: potency means the concentration at half of the fitted maximal effect; on the % scale 0 is the no-effect control and ±100 the full control effect; nearly all actives have a fitted effect of over 60% in size
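Quantitative HTS in A549 cells stably bearing an antioxidant response element-firefly luciferase construct. Inhibition of Nrf2-driven transcription was scored by luminescence after 18-24 h of compound exposure at 37 °C.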
TGFb inhibitor = blocks TGF-b signaling; Potency, µM (titrated, usually from 46.1 µM), without a hit: at the highest dose activity, negative = inhibition, actives largely listed as inhibitors; HepG2 CAGA-GFP TGF-b/SMAD3 reporter, GFP fluorescence, 18 h; TGF-beta stimulated, 500 pg/mL final; AID 588855; 410,000 compounds, 1.2% hits; further: potency means the concentration at half of the fitted maximal effect; on the % scale 0 is the no-effect control and ±100 the full control effect; nearly all actives have a fitted effect of over 65% in size
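Per well, imaged GFP fluorescence of HEPG2 CAGA-GFP cells gives the signal; cells get compound, then TGF-beta (500 pg/mL final), 18 h at 37 degrees C; %Activity versus -TGF-beta and +DMSO controls.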
Nrf2 activator = Nrf2 pathway activation; Potency, µM (highest dose often 46.1 µM), inactives show top-dose activation, actives largely listed as activators; AID 624171; AREc32 ARE-luciferase reporter (MCF7-derived line), luminescence, 24 h; 410,000 compounds, 0.31% hits; further: potency means the concentration at half of the fitted maximal effect; % of control where 0% means no effect; nearly all actives have a fitted effect of over 65% in size
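Each well held 1000 AREc32 cells, which were incubated with compound for 24 hr at 37 deg C after overnight attachment, and ARE reporter activity was quantified by firefly luciferase luminescence.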
IL2 activator = IL-2 activation; activation, % (series mostly up to about 46 µM); IL-2 activation reporter assay, cell-based qHTS; stimulated with anti-CD3/CD4/CD28 beads; in transgenic mouse T cells; 360,000 compounds, 0.065% hits; in the data active means activation above about 50%; inconclusive means mostly about 30% to 49%; further: 0% is about no effect
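Using fluorescent plate cytometry, EGFP and DsRed are detected in transgenic mouse T cells stimulated 18 h at 37 degrees C with antibody-coated beads after 60 min compound pretreatment.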
S2 tox = cell viability loss in ATXN counter-screen. S2 cells (HEK-293 line with an ATXN2-luciferase reporter) viability, CellTiter-Fluor protease fluorescence, 24 h. Potency, µM (series often up to 56.7 µM), hits mostly cytotoxic. 400,000 compounds, 0.49% hits. AID 651635; further: potency means the concentration at half of the fitted maximal effect; nearly all actives have a fitted effect of over 40% in size
HepG2 tox = counter-screen for TGF-b inhibitors: cytotoxicity in HepG2 cells; HepG2 CAGA-GFP viability, ATP luminescence, 18 h; Potency, µM (highest dose often 46.1 µM), without a hit: at the top dose activity change, negative = cytotoxicity, most hits filed as cytotoxic; 410,000 compounds, 0.76% hits; further: potency means the concentration at half of the fitted maximal effect; some results filed as inactive show a strong effect at the top dose
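HepG2 CAGA-GFP cells (1000/well, DMEM with 1% FBS) received compound, then TGF-beta at 500 pg/mL final, and were incubated 18 hours at 37 degrees C. Viability was read by CellTiter-Glo luminescence. Media-only wells were set as complete cell-killing and DMSO as no toxicity.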
ATXN2 expr inh = inhibitors of ATXN2 expression. Potency, µM (top dose mostly 57 µM), without a hit: top-dose activity change, negative = inhibition, hits mostly inhibitors. 360,000 compounds, 0.72% hits. HEK-293 ATXN2-luciferase reporter, luminescence, 24 h; further: potency means the concentration at half of the fitted maximal effect; on the % scale 0 is the no-effect control and ±100 the full control effect; nearly all actives have a fitted effect of over 55% in size
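ATXN2-luciferase reporter cells (luciferase flanked by upstream and downstream ATXN2 gene portions) were treated 24 h at 37 °C with compounds at up to 57 uM. SteadyGlo luminescence gave expression; GF-AFC fluorescence gave viability.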
A549 tox = counter-screen for Nrf2 inhibitors: cytotoxicity in A549 cells | 390,000 compounds, 0.16% hits | Potency, µM (highest dose often 46 µM), for the others: top-dose activity change, negative = cytotoxicity, most hits filed as inhibitors | A549 ARE-Fluc cells, CellTiter-Fluor viability, 18-24 h | AID 504648; further: potency means the concentration at half of the fitted maximal effect; on the % scale 0 is the no-effect control and ±100 the full control effect
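A549 ARE-Fluc cells in 5% FBS OPTI-MEM, 5000 cells/well, rested 2 h then exposed to compounds in concentration-response for 18-24 h at 37 °C. Viability by CellTiter-Fluor fluorescence (Ex 405/Em 525) after 30 min; luciferase luminescence (BugLite, 15 min, RT) read afterwards.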
* hit, by the source's call; i = inactive; ? = inconclusive; · = no result given; & = joins results of further samples; [ ] = another dose, or the depositor's remark. Unless noted, the call rests on the fitted dose curve; in most records, active means well fitted curve in the direction sought with a large enough effect; inconclusive means small, poorly fitted or top-dose-only effect, or another doubt; inactive means no such curve, though single readings can be large; an effect the other way counts as inactive or inconclusive. Only part of the results is shown; the hit share may differ from the screen's.

Molecule	Nrf2 block	TGFb inhibitor	Nrf2 activator	IL2 activator	S2 tox	HepG2 tox	ATXN2 expr inh	A549 tox
O=C(CCc1ccccc1)NCCSc1ccccc1	?	-3%	2.0%	-1.0	i	-11%	38%[activator]	1%
COC(=O)c1cc(NC(=O)c2c(Cl)cnn2C)cc(C(=O)OC)c1	16%	-3%	-0.2%	-1.7	i	-64%	-4%	12%
Cc1cc(F)ccc1NC(=O)c1ccc(NS(=O)(=O)c2cccs2)cc1	·	0%	-2.2%	-1.5	i	-31%	·	·
O=C(O)Cc1ccc(NC(=O)C(c2ccccc2)c2ccccc2)cc1	-11%	-11%	0.3%	1.2	i	4%	-30%	0%
Cc1cc2ccccn2c1C(=O)c1ccc(F)cc1	-19%	-23%	0.3%	-3.6	i	-4%	12%	-10%
N#CC(c1ccncc1)(c1ncc(C(F)(F)F)cc1Cl)N1CCOCC1 (stereo not drawn)	-13%	-10%	2.6%	-0.9	i	-21%	-8%	-21%
CC(=O)OC1CC(C)N(C(=O)c2ccccc2)c2ccc(C)cc21 (stereo not drawn)	22%	-11%	0.6%	0.3	i	-14%	-4%	3%
COc1ccc(OC)c(NC(=O)COC(=O)Cc2ccc(-c3ccccc3)cc2)c1	-8%	-2%	0.1%	-0.7	i	-12%	-1%	1%
Cc1ccc2c(c1)OC(=O)CC2c1ccccc1 (stereo not drawn)	11%	29%	-0.3%	1.1	i	6%	2%	-5%
Cc1cc(C(=O)NNC(=S)NC(C)c2ccccc2)c2ccccc2n1 (stereo not drawn)	?	0%	-1.1%	0.5	i	-23%	-7%	0%
CC[C@@H]1C=C(C(=O)O)[C@H](c2ccc(C)cc2)N1S(=O)(=O)c1ccc(C)cc1	-11%	-9%	-0.8%	0.5	i	-6%	4%	1%
O=C(O)C(=O)Nc1ccc(NC(=O)C(c2ccccc2)c2ccccc2)cc1	0%	8%	0.5%	-0.1	i	1%	12%	1%
COc1ccc(C=C(C(C)=O)C(=O)c2ccccc2)cc1	·	-9%	?	-0.8	i	-23%	-19%	·
O=C(O)c1ccc2nc3c(nc2c1)-c1ccccc1C3=O	14%	0%	3.3%	2.1	?	-21%	-14%	-3%
Cc1cc(=O)oc(C)c1C(=O)N[C@@H]1CCCCNC1=O	7%	-1%	-0.2%	1.5	i	1%	1%	1%
COCCN(CCOC)Cc1cc(=O)oc2ccccc12	·	-19%	-0.9%	-0.4	i	9%	5%	·
COc1ccc(/C=C/C2=Nc3ccccc3NC(C)(C)C2)cc1OC	22%	-24%	?	-0.6	i	-32%	·	-3%
CC(=O)N1CCc2cc(C(=O)CN3CCCCC3)ccc21	5%	-9%	4.8%	-1.2	?	-5%	-11%	-2%
CCN(CC)CC(=O)N1c2ccccc2Oc2c(c(=O)n(C)c(=O)n2C)C1c1cccc([N+](=O)[O-])c1 (stereo not drawn)	-25%	5%	-0.5%	-0.1	i	-33%	0%	-8%
C/C(=N\Nc1ccc(Cl)cc1)c1c(O)cc(C)oc1=O	3%	7%	2.8%	1.8	i	8%	-4%	-12%
O=C(/C=C/NNC(=O)c1cccc(Br)c1)c1cccc(Br)c1	-2%	?	8.0%	-0.7	?	-26%	-26%	-8%
COc1ccccc1NC(=O)c1c(Br)cnn1C	-6%	-1%	?	1.1	i	-14%	11%	0%
Cc1cccc2c1NC(=O)C2(O)N1CCCC(C)C1 (stereo not drawn)	7%	5%	0.2%	-0.3	i	2%	10%	-12%
COc1ccc2c(c1)CCc1c(C(=O)NCCCn3ccnc3)noc1-2	·	-14%	2.6%	2.9	i	-21%	10%	-2%
Cc1ccn2c(NC3CCCCC3)c(-c3cccc(SC4CCCCC4)c3)nc2c1	?	?	-1.4%&2.8%	-0.9&-1.0	?	-37%	?	-14%
CCCCNC(=O)C1(C)CCCCN1CC(=O)c1ccc(OC)cc1 (stereo not drawn)	·	-3%	3.9%	-0.1	i	-5%	2%	·
C[C@H](NC(=O)c1nc[nH]c1C(=O)N(C)Cc1ccccc1)C(=O)OC(C)(C)C	6%	?	0.2%	0.9	i	1%	6%	9%
C=CCSc1nnc2c(n1)[nH]c1c(C)cccc12	?	-25%	14%	-0.6	?	-5%	12%	-10%
CCN1CCc2c(sc(NC(=O)CN3C(=O)c4ccccc4C3=O)c2C(N)=O)C1	10%	-1%	-0.6%	-0.4	i	4%	·	9%
CC(NS(=O)(=O)c1ccc(Cl)cc1)C(=O)OCC(=O)c1ccc[nH]1 (stereo not drawn)	-1%	-2%	0.3%	-0.5	i	-3%	2%	-3%
CC(C)NC(=O)CNc1ccc(C(F)(F)F)cc1[N+](=O)[O-]	19%	-12%	6.5%	-0.2	i	-22%	-29%	-14%
COc1ccc(NC(=O)CN(C)C(=O)/C=C/c2ccc(S(=O)(=O)N3CCCCCC3)cc2)cc1	?	-28%	0.2%	0.0	i	-44%	-1%	-3%
Brc1ccccc1-c1nnc(SCc2nc3ccccc3s2)o1	?	24%	?	-4.9	·	19%	63%[activator]	6%
Cc1ccc(NC2SC(=O)N(CC(=O)O)C2=O)cc1 (stereo not drawn)	-9%	0%	-0.4%	3.3	i	-1%	7%	12%
COc1cccc(C(=O)/C=C/Nc2ccc(S(=O)(=O)Nc3cccc(C(C)=O)c3)cc2)c1	·	-30%	1.7%	-3.1	?	0%	?	?
O=c1c(NCCc2ccccc2)c(-c2ccccc2)c1=O	19%	-17%	0.2%	0.2	?	-9%	?	10%
CCCNC(=O)c1noc2c1CCc1cc(OC)ccc1-2	?	?	0.2%	-2.0	i	-16%	18%	0%
CC(OC(=O)c1ccccc1Oc1ccccc1)C(=O)NC1CC1 (stereo not drawn)	?	-16%	4.8%	0.9	i	-1%	·	?
COc1ccc(OC)c(-n2c(-c3cc(-c4ccc(F)cc4)n[nH]3)n[nH]c2=S)c1	-20%	1%	3.7%	0.0	i	-20%	-17%	1%
COC(=O)c1ccc2nc(C3CCCCC3)c(Cc3ccccc3C(F)(F)F)n2c1	·	22µM*	1.1%	-0.7	?	-105%	?	·
Cc1cc(C)c2c(c1)OC(=O)CC2c1ccc2c(c1)OCO2 (stereo not drawn)	8%	-14%	-1.2%	-0.1	i	11%	10%	9%
CC1=C(C(=O)Nc2ccccc2)C(c2cccnc2)n2ncnc2N1 (stereo not drawn)	-7%	-7%	0.4%	0.1	i	-10%	-13%	-1%
COc1ccccc1/C=C1\C(=O)Nc2ccccc21	?	?	?	1.1	i	-10%	·	?
O=S(=O)(Cc1cccc(C(F)(F)F)c1)c1ncn[nH]1	-2%	4%	-0.2%	-0.1	i	-4%	-12%	-3%
O=C(NC1CCCCCC1)C1CCN(C(=O)c2ccc(Br)cc2)CC1	-22%	-10%	-0.6%	-2.2	i	-24%	-13%	0%
O=C(NC1CCC(O)CC1)c1cccnc1Sc1ccccc1Cl (stereo not drawn)	0%	1%	0.6%	0.3	i	-16%	1%	6%
Cc1ccc2c(CC(=O)NNC(=O)c3ccncc3)coc2c1	6%	11%	0.1%	0.1	i	-1%	2%	11%
CCC(=O)N1CCC1(C)C(=O)Nc1ccc(C)c(C)c1 (stereo not drawn)	·	0%	0.4%	-0.8	i	-1%	2%	·
COc1cccc(CC(=O)NCC2COc3ccccc3O2)c1OC (stereo not drawn)	6%	-22%	0.3%	1.2	i	-39%	-7%	8%
CC(=O)N/C(=C\c1ccccc1)C(=O)OC(C)C(=O)NCc1ccccc1 (stereo not drawn)	1%	0%	0.6%	-0.6	i	0%	3%	-2%
Cn1c(C2CC(=O)N(Cc3ccccc3)C2)nc2ccccc21 (stereo not drawn)	?	4%	-1.1%	-3.0	i	8%	10%	0%
CCCC/C=C/[C@H](c1ccccc1)[C@H](CO)Cc1cccnc1	7%&3%	?	0.5%	-0.5	i	-41%&-46%	-4%	2%&-6%
COc1cc(-c2nc3ccccn3c2NCc2ccccc2)ccc1SC1CCCCC1	?	?	-2.3%	-0.5	i	-19%	?	?
COc1ccc(NC(=O)CSc2ccccc2)cc1S(=O)(=O)N1CCCCC1	-29%	?	-0.5%[9.22 µM]	0.9	i	-8%	-6%	0%
O=C(Nc1ccc2oc(=O)ccc2c1)c1ccc(-c2ccccc2[N+](=O)[O-])o1	?	20%	4.1%	-1.8	i	-1%	-12%	-3%

A second format for part of the listing above:
CCCC/C=C/[C@H](c1ccccc1)[C@H](CO)Cc1cccnc1
  Nrf2 block: 7%&3%	TGFb inhibitor: ?	Nrf2 activator: 0.5%	IL2 activator: -0.5	S2 tox: i	HepG2 tox: -41%&-46%	ATXN2 expr inh: -4%	A549 tox: 2%&-6%

COc1cc(-c2nc3ccccn3c2NCc2ccccc2)ccc1SC1CCCCC1
  Nrf2 block: ?	TGFb inhibitor: ?	Nrf2 activator: -2.3%	IL2 activator: -0.5	S2 tox: i	HepG2 tox: -19%	ATXN2 expr inh: ?	A549 tox: ?

COc1ccc(NC(=O)CSc2ccccc2)cc1S(=O)(=O)N1CCCCC1
  Nrf2 block: -29%	TGFb inhibitor: ?	Nrf2 activator: -0.5%[9.22 µM]	IL2 activator: 0.9	S2 tox: i	HepG2 tox: -8%	ATXN2 expr inh: -6%	A549 tox: 0%

O=C(Nc1ccc2oc(=O)ccc2c1)c1ccc(-c2ccccc2[N+](=O)[O-])o1
  Nrf2 block: ?	TGFb inhibitor: 20%	Nrf2 activator: 4.1%	IL2 activator: -1.8	S2 tox: i	HepG2 tox: -1%	ATXN2 expr inh: -12%	A549 tox: -3%

Source: PubChem
